# Screening data deposited in PubChem BioAssay by several laboratories.
# WNV protease inh – inhibitors of West Nile virus NS2B-NS3 protease; z-score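 (tested at a level between 10 and 100 µM)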; 65,000 compounds, 0.18% hits; AID 577; WNV NS2B-NS3 protease, fluorogenic substrate Ex360/Em465; stronger effect = lower value;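 active = z-score at -3 or under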;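 also: score is relative to mean and spread of the compound wells of a plate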
# Target sequence (P06935 1371-1501 limits assumed): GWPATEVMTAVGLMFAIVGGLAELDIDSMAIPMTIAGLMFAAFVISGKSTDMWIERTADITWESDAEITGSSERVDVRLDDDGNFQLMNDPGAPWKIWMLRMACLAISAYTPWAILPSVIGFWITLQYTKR
# Target sequence (P06935 1502-1679 limits assumed): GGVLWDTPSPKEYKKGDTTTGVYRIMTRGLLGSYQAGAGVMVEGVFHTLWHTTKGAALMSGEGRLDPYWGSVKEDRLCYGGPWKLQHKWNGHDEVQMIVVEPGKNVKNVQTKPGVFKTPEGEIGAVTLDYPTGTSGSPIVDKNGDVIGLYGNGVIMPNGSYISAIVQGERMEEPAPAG
# MT1-MMP reporter – inhibitors of MT1-MMP promoter transcription, cell-based, luciferase reporter, luminescence (AID 618) | MT1-MMP promoter luciferase reporter cells, luminescence | calls from a first round at 10 µM; hits with a dose series show EC50 in µM | 87,000 compounds, 0.62% hits;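 active = over half of the reporter light lost at 10 µM or EC50 under 50 µM; inactive = the rest and hits that failed the dose series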;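 also: actives suppress MT1-MMP promoter-driven transcription so potencies describe inhibitors; HT1080 fibrosarcoma cells; overnight exposure; toxic or luciferase-blocking compounds were not removed from the actives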
# * = called active by the depositor; i = inactive; . = no result given; + = active, no number. The list is partial, so the mix of outcomes need not match the whole.
# The opening two records, ahead of the listing:
Compound | WNV protease inh | MT1-MMP reporter
C/C(CC(O)c1ccc2ccccc2n1)=N/O (stereo unspecified) | -0.03 | .
COc1ccc(CC(NC(C)=O)C(=O)N2CCN(C(=O)Nc3ccc(Cl)cc3)CC2)cc1OC (stereo unspecified) | 0.07 | .

# All compounds of this part, from the first entry:
Compound | WNV protease inh | MT1-MMP reporter
C/C(CC(O)c1ccc2ccccc2n1)=N/O (stereo unspecified) | -0.03 | .
COc1ccc(CC(NC(C)=O)C(=O)N2CCN(C(=O)Nc3ccc(Cl)cc3)CC2)cc1OC (stereo unspecified) | 0.07 | .
CS(=O)(=O)N1CCCC(C(=O)NCc2ccco2)C1 (stereo unspecified) | -1.38 | .
COc1ccc(-c2cn3c(C)c(C(=O)N4CCN(c5ccccc5)CC4)sc3n2)cc1 | -0.71 | .
CCOC(=O)N1CCN(c2ncnc3c2oc2nc(CC(C)C)c4c(c23)CCC4)CC1 | -1.75 | .
COc1cccc2c1OC1(C)CC2/C(=C(\C)O)C(=O)N1 (stereo unspecified) | -0.15 | .
CC(=O)NC1=NC(=O)CS1 | -0.88 | .
COc1cc2[nH]c(=O)n(CCC(=O)N3CCc4ccccc4C3)c(=O)c2cc1OC | 0.39 | .
CN1C(=O)c2cccc(NC(=O)C3CCCCC3)c2C1=O | 0.55 | .
COc1ccccc1NC(=O)C(C/C=C(\C)Cl)C(C)=O (stereo unspecified) | -0.23 | .
COCCNc1oc(-c2ccccc2Cl)nc1C#N | 0.57 | .
COc1ccc(NS(=O)(=O)c2ccc(N)cc2)nn1 | -0.11 | .
COc1cc(OC)cc(C2C(C#N)=C(N)Oc3n[nH]c(-c4cccnc4)c32)c1 (stereo unspecified) | 1.49 | .
COc1ccc(C)cc1NC(=O)C1CCCN(S(=O)(=O)c2cccc3nonc23)C1 (stereo unspecified) | -1.11 | .
CCN(CC)S(=O)(=O)c1cc(C(=O)O)ccc1Cl | 0.46 | .
FC(F)(F)c1nnc2ccc(N3CCOCC3)nn12 | 0.47 | .
O=c1c(N2CCCCC2)coc2ccccc12 | 0.19 | .
Cc1cc(NC(=O)CSc2nc3ccccc3c(=O)n2C2CCCC2)no1 | -0.13 | .
O=C(c1ccc(Cl)cc1)N1CCN(C(=O)c2ccco2)CC1 | 2.6 | .
O=C(NCc1cccs1)c1cccc(N2CCCC2=O)c1 | 1.21 | .
CNC(=O)C1CC(=O)N(Cc2ccc3c(c2)OCO3)C(=Nc2ccc(OC)cc2)S1 (stereo unspecified) | -0.86 | .
CCCc1cc(=O)[nH]c(Nc2ccc(N3CCCCC3)cc2)n1 | -1.15 | .
[O-][n+]1onc2c1CCC1N(O)C(c3ccccc3)CC21O (stereo unspecified) | -0.47 | .
COCCCNC(=O)CN(c1ccc(OC)cc1)S(=O)(=O)c1ccc(NC(C)=O)cc1 | -1.19 | .
O=P(CCC(F)(F)F)(CCC(F)(F)F)CCC(F)(F)F | 1.34 | .
CC(C)OCCCNC(=O)c1ccccc1Oc1ccccc1 | . | i
CCC1=C2CC[C@H]3C(=O)N(CC)C(=O)[C@H]3[C@H]2[C@@]2(Cc3ccccc3)C(=NCC3CC3)OC(=O)N2C1=O | . | i
CC(=O)N1C2(C=CC1(C)C(=O)NCc1cc(F)cc(C(F)(F)F)c1)CCCCC2 (stereo unspecified) | . | i
OCCNCCCCOc1ccc(F)cc1 | . | i
CCCCCCN(C(=O)CCCCCN1C(=O)NC(c2ccc(-c3ccccc3)cc2)C(C(=O)OCc2ccccc2)=C1C)C(C)C(=O)NCCCC (stereo unspecified) | . | i
CC(C)(C)c1ccc(C(=O)NC(Cc2ccccc2)C(=O)O)cc1 (stereo unspecified) | . | i
CC1=C(C(=O)OCc2ccccc2)C(c2ccc(C#N)cc2)NC(=O)N1CCCC(=O)O (stereo unspecified) | . | i
CC(Cc1ccccc1)C(=O)NCCc1c[nH]c2ccccc12 (stereo unspecified) | . | i
COC(=O)[C@@]1(Cc2ccc(F)cc2)[C@H]2c3cc(C(=O)N(C)C)n(CCc4ccc(OC)c(Br)c4)c3C[C@H]2CN1C(=O)c1ccccc1 | . | i
COC(=O)[C@H]1C[C@@H]1[C@H](NC(=O)c1ccccc1)c1ccccc1 | . | i
O=C(CCCN1C(=O)CCC1=O)Nc1ccc(Br)cc1F | . | i
CC(C)CCNC(=O)Nc1ccc2c(c1)N(C)C(=O)CS2 | . | i
COc1ccc(CCNS(=O)(=O)c2ccc(OC)cc2)cc1 | . | i
CC(/C=N/N1CCN(c2ccccc2)CC1)=C\c1ccco1 | . | i
CNC(=O)C1(C)C=CC2(CCCCC2)N1C(C)=O (stereo unspecified) | . | i
O=C(NC(C(=O)NCCN1CCOCC1)C12CC3CC(CC(C3)C1)C2)C1CCCCC1 (stereo unspecified) | . | i
C=CCn1c(SCC(=O)N2CCN(c3ccccc3)CC2)nnc1-c1ccco1 | . | i
CCOc1c(CNCCN2CCOCC2)cccc1OC | . | i
COc1ccc(C2C(C(=O)OC(C)C)=C(C)N=c3s/c(=C\c4cccs4)c(=O)n32)cc1 (stereo unspecified) | . | i
CCOC(=O)C1CCN(Cc2ccc(F)cc2F)CC1 | . | i
COC(=O)c1ccc(NC(=O)Nc2ccc(F)c(Cl)c2)cc1 | . | i
COc1ccccc1N1CCN(C(=O)CSc2nc3ccccc3o2)CC1 | . | i
Cc1ccnc(NC(=S)NC(=O)/C=C/c2ccco2)c1 | . | i
COC(=O)C1(Cc2ccccc2)C=C2C(=C(C(C)C)C(=O)C2C)CN1 (stereo unspecified) | . | i
CCN(CC)CCCNC(=O)C(C)n1nc(C)c2sc3ccccc3c2c1=O (stereo unspecified) | . | i
CCC/C=C(\CCC)C(NS(=O)(=O)c1ccc(C(F)(F)F)cc1)c1ccc(-c2ccccc2)cc1 (stereo unspecified) | . | i
O=C(CCCCCn1c(=O)[nH]c2ccccc2c1=O)NCCc1c[nH]c2ccccc12 | . | i
Cn1c(N)c(C(=O)COC(=O)c2cc(-c3ccco3)nc3ccccc23)c(=O)n(Cc2ccccc2)c1=O | . | i
COCCSc1ccccc1C(=O)N1CCOCC1 | . | i
CCn1c(CNC(=O)c2cccs2)nnc1SCC(=O)Nc1cc(Cl)ccc1C | . | i
CCOC(=O)C1=C(O)/C(=C\c2ccc(CNC(=O)C(=O)Nc3ccc(C)c(C)c3)o2)N=C1C | . | i
Cc1cc(S(=O)(=O)Nc2c(C)ccc3nsnc23)ccc1F | . | i
CCOC(CNC(=O)c1ccc2nc(N3CCC(C)CC3)sc2c1)OCC | . | i
COC(=O)[C@@]1(Cc2ccc(F)cc2)[C@H]2c3cc(C(=O)N(C)C)n(Cc4ccc(C)c(F)c4F)c3C[C@H]2CN1C(=O)c1ccccc1 | . | i
Cc1cc(C(=O)N[C@@H](c2ccccc2)[C@]2(C)C[C@H]2[C@@H](C)C(=O)Nc2ccc3ccccc3c2)n(C)n1 | . | i

# More structures follow:
Compound | WNV protease inh | MT1-MMP reporter
CCC1=C(OC(=O)N(CC)CC)N2C(=O)OC(=NCc3ccccc3)[C@]2(C)[C@H]2C1=CC[C@H]1C(=O)N(CC)C(=O)[C@H]12 | . | i
O=C(OCC#CCSc1nnc(-c2ccccc2)o1)c1cc2ccccc2o1 | . | i
CC(=O)Nc1ccc(C(=O)CSc2nnc(Cc3ccccc3)o2)cc1 | . | i
COC(=O)c1ccc(C(NC(=O)OCc2ccccc2)/C(C)=C/[C@@H](C)C(=O)N(C)Cc2cccnc2)cc1 (stereo partly specified) | . | i
Cc1ccc(CCN2C(=O)CCC2(C)C(=O)NCc2cccnc2)cc1 (stereo unspecified) | . | i
C=CCn1c(SCC)nc(O)cc1=O | . | i
COC(=O)[C@@H]1C[C@H]2CC[C@H](O)C[C@H]2N1Cc1ccc(-c2ccccc2)cc1 | . | +
CCCc1nn(C(=O)c2ccccc2)c2c1C(=O)CC(C)(C)C2 | . | i
COC(=O)c1cn(NC(=O)c2cccc(F)c2)c(=O)c2ccccc12 | . | i
COC(=O)C(C(=O)Nc1cccc(C)n1)C1CCCCCC1 (stereo unspecified) | . | i
Cc1ccc2c(c1)CCCN2C(=O)c1ccco1 | . | i
O=C(COc1ccc(Br)cc1)NCc1ccccn1 | . | i
O=C(CSc1n[nH]c(-c2ccccc2)n1)Nc1ncc(Br)cc1Br | . | i
Cn1c(Cn2nnc(-c3ccccc3)n2)nnc1SCc1ccccc1Cl | . | i
O=C(NCc1ccccc1)c1ccc2c(c1)C(=O)N(CC1CCCO1)C2=O (stereo unspecified) | . | i
COc1ccc(-c2cn3nc4c(nc3n2)CCCC4)cc1 | . | 0.59µM*
O=C1c2ccccc2C(=O)N1CCSc1ccccc1 | . | i
Cc1cc(=O)[nH]c(SCc2nnc(-c3ccccc3)o2)n1 | . | i
C=CCn1c(CCNC(=O)c2ccccc2F)nnc1SCC(=O)Nc1nc2ccccc2s1 | . | i
COc1ccc(N=Cc2c(O)[nH]c3ccccc23)cc1 | . | i
CCCCN(CCCC)CCNC(=O)CNC(=O)c1cccs1 | . | i
O=C(CSc1nc(-c2ccccc2)c(-c2ccccc2)[nH]1)NCc1ccco1 | . | i
COCCNC(=O)c1ccccc1NS(=O)(=O)c1ccc(Br)s1 | . | i
O=C(c1ccc(Cl)cc1)c1cnc2ccccn12 | . | i
CCOC(=O)C1=C(C)N(Cc2ccccc2)C(=O)NC1c1ccccc1OS(=O)(=O)c1ccccc1[N+](=O)[O-] (stereo unspecified) | . | i
COCCCNC(=O)c1ccc(Cn2c(=O)c3ccccc3n(Cc3ccccc3C)c2=O)cc1 | . | i
O=C(CSc1ncn[nH]1)NCc1ccccc1 | . | i
CC(=O)c1sc(N)c(C(=O)OC(C)C)c1C | . | i
O=C(OC1CCCCC1)c1ccc(NC(=O)C2CCCCC2)cc1 | . | i
O=C(c1ccc2nc(-c3ccco3)c(-c3ccco3)nc2c1)N1CCN(c2ncccn2)CC1 | . | i

# One compound at a time (already shown). Order of screens: WNV protease inh	MT1-MMP reporter
# Cc1ccc(CCN2C(=O)CCC2(C)C(=O)NCc2cccnc2)cc1 (stereo unspecified) reads .	i
# C=CCn1c(SCC)nc(O)cc1=O reads .	i
# Cn1c(Cn2nnc(-c3ccccc3)n2)nnc1SCc1ccccc1Cl reads .	i
# COC(=O)c1cn(NC(=O)c2cccc(F)c2)c(=O)c2ccccc12 reads .	i
# COC(=O)c1ccc(C(NC(=O)OCc2ccccc2)/C(C)=C/[C@@H](C)C(=O)N(C)Cc2cccnc2)cc1 (stereo partly specified) reads .	i

# Additional results follow.
Compound | WNV protease inh | MT1-MMP reporter
C=CCn1c(SCc2c(C)noc2C)nc2sc(C)c(C)c2c1=O | . | i
CC(=O)N1CC2(CC2)CC1c1ccccc1 (stereo unspecified) | . | i
O/N=C\c1cccn1-c1ccc(Br)cc1 | . | i
CCOc1cc2[nH]c(=O)n(Cc3ccccc3)c(=O)c2cc1OCC | . | i
CCOC(=O)C1CCN(C(=O)CCc2c(C)nc3ncnn3c2C)CC1 | . | i
CN(C)CCOC(=O)C1(c2ccccc2)CCCC1 | . | i
Cc1cccc(C(=O)Nc2cccc(C(=O)N3CCOCC3)c2)c1 | . | i
CC1CCc2c(sc(NC(=O)C(=O)NCc3ccco3)c2C#N)C1 (stereo unspecified) | . | i
COc1ccc(Cn2c(C)c(C)c(C#N)c2NC(=O)Nc2ccc(F)cc2)cc1 | . | i
COCCCNC(=O)c1c(NC(=O)c2cccs2)sc2c1CCCC2 | . | i
COc1ccc(NC(=O)N(Cc2ccc3c(c2)OCO3)C2CC(=O)N(c3ccc(OC)cc3)C2=O)cc1 (stereo unspecified) | . | i
CCn1nnc2sc3c(c2c1=O)CCC(C)C3 (stereo unspecified) | . | i
CC1=C(C(=O)OCC(Br)(Br)Br)C(c2ccccc2)NC(=O)N1CCCC(=O)O (stereo unspecified) | . | i
Cc1ccc(C)c(NC(=O)c2ccc(OC(=O)c3ccco3)cc2)c1 | . | i
C=CCn1cc(-c2cccc(Cl)c2)cc(C#N)c1=O | . | i
CCCCCCc1ccc(OCC(=O)OC)cc1OCC(=O)OC | . | i
CC1=C(C(=O)OCC(Br)(Br)Br)C(c2cccc([N+](=O)[O-])c2)NC(=O)N1CCCC(=O)O (stereo unspecified) | . | i
O=C(NCC1CCCO1)c1ccc(NC(=O)C2C3C=CC(C3)C2C(=O)O)cc1 (stereo unspecified) | . | i
COc1cc2c(cc1NC(=O)CCCCCN1C(=O)CCC1=O)oc1ccccc12 | . | i
C[C@]1(C(=O)NCCCNc2ncc(C(F)(F)F)cc2Cl)C=C[C@@H](Cc2ccccc2)N1C(=O)c1ccccc1 | . | i
CCCC1(C(=O)OC)C=C2C(=C(C(C)C)C(=O)C2C)CN1 (stereo unspecified) | . | i
COc1ccc(S(=O)(=O)N(CC(=O)NCC2CCCO2)c2ccc(F)cc2)cc1OC (stereo unspecified) | . | i
C=CCSc1nnc(-c2nnc(SCC=C)n2CC)n1CC | . | i
CC1CCC(=NNC(=O)Cc2ccccc2)CC1 (stereo unspecified) | . | i
COC(=O)c1ccc(C(NC(=O)OCc2ccccc2)/C(C)=C/[C@@H](C)C(=O)O)cc1 (stereo partly specified) | . | i
c1ccc(COc2ccc(OCCCCN3CCCCC3)cc2)cc1 | . | i
CSc1ccc(NC(=O)NCCN2CCc3ccccc3C2)cc1 | . | i
COc1ccc(S(=O)(=O)N(C)CC(=O)Nc2cccc(C(C)=O)c2)cc1Cl | . | i
O=C(O)COc1cccc2ccccc12 | . | i
O=C(CCN1C(=O)COc2ccccc21)N1CCCCC1 | . | i
